CtBP-E1A blk: CtBP/E1A binding inhibition. AlphaScreen GST-E1A/His-CtBP binding, 1536-well; active compounds read low; control for the full effect not named in the record. activity change, % (no concentration beside the values). 340,000 tested, 0.49% active. AID 651724; in the data active means activity change below about -65%; inconclusive means about -30% to -65%; inactive means above about -30%; further: on the % scale 0 is the no-effect control and ±100 the full control effect
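GST-E1A and His-tagged CtBP (125 nM each as 5X stock) were preincubated with pin-transferred compound for 2 h at 37 °C in the dark, then glutathione donor and nickel acceptor beads were added for 1 h before AlphaScreen reading.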
PINK1 modulator: modulators of PINK1 expression. Potency, µM (doses to about 76.6 µM), inactives show top-dose activation (PINK1 increase), usual class: activators. 410,000 tested, 0.2% active. PINK1 immunofluorescence, high-content cytometry, 24 h. AID 624263; active = well fitted activation curve with a large enough effect; inconclusive = small, poorly fitted or top-dose-only effect; inactive = flat fitted curve, though single readings scatter; cell line not stated here;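 further: potency means the concentration at half of the fitted maximal effect; % of control where 0% means no effect; nearly all actives have a fitted effect of over 65% in size; a mitochondrial uncoupler was the plate control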
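Measures PINK1 amount and localization on or inside mitochondria by immunofluorescence. Stable cells get compounds at 5 concentrations for 24 hours before fixation and staining; CCCP controls included.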
D2 potentiator: human D2 receptor positive allosteric modulation; 360,000 tested, 0.23% active; potentiation, % (test concentration not listed); P14416; DiscoveRx D2 beta-arrestin cells, luminescence, 90 min; 100% = 57 uM dopamine signal; active = potentiation of 50% or more; inconclusive = 30% to 50%; inactive = 30% or less;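 further: compound concentration not given in the record; tested on top of an EC20 dose of dopamine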
Target sequence (P14416 whole entry, looked up): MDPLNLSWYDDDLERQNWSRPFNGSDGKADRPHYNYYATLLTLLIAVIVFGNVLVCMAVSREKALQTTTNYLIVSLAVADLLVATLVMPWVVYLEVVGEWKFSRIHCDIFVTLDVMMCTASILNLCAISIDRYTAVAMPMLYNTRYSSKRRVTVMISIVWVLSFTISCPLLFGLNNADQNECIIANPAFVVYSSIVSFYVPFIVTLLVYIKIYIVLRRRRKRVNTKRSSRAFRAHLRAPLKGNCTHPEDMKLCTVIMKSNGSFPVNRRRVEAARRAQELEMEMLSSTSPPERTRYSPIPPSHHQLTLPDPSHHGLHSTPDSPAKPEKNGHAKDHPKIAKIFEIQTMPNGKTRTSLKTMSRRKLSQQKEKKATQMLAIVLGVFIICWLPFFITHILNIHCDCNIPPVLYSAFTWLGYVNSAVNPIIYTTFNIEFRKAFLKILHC
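D2 cells co-treated with compound plus 50 nM dopamine (EC20) for 90 min at 37 deg C to detect potentiation. Beta-arrestin recruitment was read as enzyme-fragment luminescence after 1 h at ambient temperature. Full response was set by 57 uM dopamine.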
D2 agonist: activates the human D2 dopamine receptor; DiscoveRx PathHunter D2 beta-arrestin, luminescence, 90 min; 100% = 57 uM dopamine signal; activation, % (test concentration not listed); 360,000 tested, 0.084% active; AID 624465; in the data active = activation above about 40%; inconclusive = about 15% to 40%; inactive = below about 15%; further: compound concentration not given in the record; the text of the record calls up to 30% inactive
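DiscoveRx PathHunter D2 beta-arrestin cells (2,100/well) attached overnight, then compound-stimulated 90 min at 37 C in HBSS/10 mM HEPES/0.1% Tween-20 buffer; beta-galactosidase complementation read by luminescence after 1 h at ambient temperature. Dopamine 57 uM final (EC100) as control.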
TRPML1 ag: human mucolipin-1 channel agonism; TRPML1-expressing cells, Ca2+ dye fluorescence, FDSS; host cell line not named in the record; reference of the full effect not given here; activation, % (test concentration not listed); 410,000 tested, 0.12% active; AID 624414; in the data active = activation above about 50%; inconclusive = about 30% to 50%; inactive = below about 30%; further: 0% is about no effect; the text of the record puts the active cut at 80%
Target sequence (Q9GZU1 whole entry, looked up): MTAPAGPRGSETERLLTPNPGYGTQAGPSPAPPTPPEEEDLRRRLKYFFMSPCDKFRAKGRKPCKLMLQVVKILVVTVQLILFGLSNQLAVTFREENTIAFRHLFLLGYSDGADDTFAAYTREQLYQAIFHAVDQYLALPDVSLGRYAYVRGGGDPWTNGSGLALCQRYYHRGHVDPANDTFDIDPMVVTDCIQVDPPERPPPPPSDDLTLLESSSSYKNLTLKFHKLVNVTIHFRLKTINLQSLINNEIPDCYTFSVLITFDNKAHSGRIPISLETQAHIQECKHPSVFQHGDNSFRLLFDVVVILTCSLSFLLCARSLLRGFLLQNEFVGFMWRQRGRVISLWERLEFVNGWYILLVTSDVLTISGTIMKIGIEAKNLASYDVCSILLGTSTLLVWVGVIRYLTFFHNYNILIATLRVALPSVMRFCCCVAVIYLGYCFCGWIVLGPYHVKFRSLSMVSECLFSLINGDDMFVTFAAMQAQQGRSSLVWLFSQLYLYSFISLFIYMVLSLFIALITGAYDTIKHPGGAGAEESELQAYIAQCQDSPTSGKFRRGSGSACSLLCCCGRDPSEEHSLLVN
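In this qHTS format, compounds were pin-transferred onto Ca8-dye-loaded TRPML1-DL cells induced with Tet overnight, and intracellular Ca2+ fluorescence was recorded kinetically for 110 s after a 10 s baseline. A subsequent 4uM final 54-4 (EC80) addition followed by a second 110 s read served as the antagonist phase.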
Six1-Eya2 inh: Six1/Eya2 interaction inhibition | Q15475+O00167 | AlphaScreen GST-Six1/His-Eya2 binding, biochemical; active compounds read low; control for the full effect not named in the record | activity change, % (no concentration beside the values) | 360,000 tested, 0.56% active | AID 651725; in the data active = activity change below about -65%; inconclusive = about -30% to -65%; inactive = above about -30%; further: on the % scale 0 is the no-effect control and ±100 the full control effect
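GST-Six1 + His-Eya2 (5X stock: 250/500 nM); Tris pH 8.0, 300 mM NaCl, 0.05% BSA, 0.02% Tween 20; GSH donor/Ni acceptor beads; 1 h 37 °C dark; AlphaScreen readout.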
The depositor's hits bear a star; ? = inconclusive; . = not tested or not shown; & = joins results of further samples; [ ] = another dose, or the depositor's remark. Rows were taken by chance. About 1.3% of those tested had a hit in this group.

SMILES	CtBP-E1A blk	PINK1 modulator	D2 potentiator	D2 agonist	TRPML1 ag	Six1-Eya2 inh
COc1ccccc1CN1CCNC(=O)C1CC(=O)NCCCN1CCCC1=O (stereo not given)	-7.3	-1.3%	-12.7	6.9	0.9	-0.1
COc1ccc(/C=C(/NC(=O)c2ccc(Br)cc2)C(=O)Nc2cccc(C(=O)O)c2)cc1	1.4	-0.9%	-5.7	-2.2	0.1	-0.5
O=C(COC(=O)c1ccc(S(=O)(=O)N2CCCC2)cc1)NCc1ccc(F)cc1	-2.0	0.2%	14.0	0.6	-0.5	1.2
CCOC(=O)C1CCN(C(=O)c2ccc3c(=O)n4nc(Nc5ccccc5CC)sc4nc3c2)CC1	-15.7	2.5%	-9.8	-1.4	1.0	39.6
CCOC(=O)[C@H]1[C@H]2COc3ccc(Br)cc3[C@@H]2N2C(=O)CN(C)C(=O)[C@@]12C	-22.2	0.2%	-2.8	-0.1	-0.8	-1.3
O=C(Cc1c(F)cccc1Cl)NC1=NCCS1	-10.4	0.7%	-3.7	0.1	-0.5	-2.8
Cc1nn(C(=O)c2nn(C)cc2[N+](=O)[O-])c(C)c1Br	-0.7	2.1%	-9.7	-8.6	-0.9	7.0
Oc1ccc(-c2n[nH]c(C(F)(F)F)c2-c2ccccc2)c(O)c1	.	4.8%	1.7	?	2.3	-7.8
COc1ccccc1NC(=O)c1nn(C)c(C(=O)Nc2ccccc2OC)c1[N+](=O)[O-]	0.4	0.7%	-5.9	-0.5	-1.0	-16.1
Cn1c(Cc2ccccc2)nnc1SCC(=O)Nc1ccccc1	4.2	-0.1%	-8.7	-2.6	0.4	5.6
Cc1cc(=O)oc(C)c1C(=O)NCCCN1C(C)CCCC1C (stereo not given)	11.4	3.2%[38.3 µM]	0.4	-1.3	0.9	7.3
CCN(CC)S(=O)(=O)c1ccc(Oc2cccc(C(C)=O)c2)nc1	6.3	-1.1%	-6.2	-4.4	2.0	0.3
Cc1ccc(S(=O)(=O)N2C[C@@H](C)[C@]3(C2)[C@H](O)[C@H](OC(=O)Nc2c(C)noc2C)C[C@H]2C(=O)N(c4ccccc4)C(=O)[C@H]23)cc1	-0.5	0.2%	.	-0.6	.	0.0
CCN(CC)CCNC(=O)Cn1cnc2sc(C)c(S(=O)(=O)N3CCN(c4ncccn4)CC3)c2c1=O	8.5	-0.3%	-3.0	0.1	0.4	1.7
COc1ccc(NC(=O)CN(C)C(=O)C2=COCCO2)cc1	-0.3	-0.6%	-22.6	1.6	0.2	2.5
O=C(COC(=O)c1cccc(C(=O)OCC(=O)NC2CCCCC2)n1)NC1CCCCC1	0.0	-1.0%	-14.2	-2.7	0.1	21.7
Cc1cc(C(=O)OCC(=O)Nc2cc(C)on2)c2ccccc2n1	-16.6	0.2%	-5.0	2.5	-0.3	-1.1
Cn1c(C(=O)OC(C(=O)NC2CCCCC2)c2cccnc2)cc2sccc21 (stereo not given)	-0.7	0.1%	-1.4	-0.6	1.7	-8.3
CCC(C(=O)OCC(=O)NC(=O)c1ccccc1OC)c1ccccc1 (stereo not given)	14.4	0.7%	-4.7	-0.9	0.2	5.0
COC(=O)c1ccc(C2C(C(=O)c3ccc(C)o3)=C(O)C(=O)N2c2cc(C)on2)cc1 (stereo not given)	0.6	-0.5%	-3.6	-0.4	0.9	-2.3
CC(=O)Nc1scc(-c2ccccc2)[n+]1-c1ccc(C)cc1	0.0	-2.3%	-3.5	-1.7	0.0	-2.1
Cc1nc2c(C)cccn2c(=O)c1NC(=O)c1cccc2ccccc12	1.8	7.0%	-0.5	-3.9	0.0	-8.2
CC(C)N1C(=O)c2ccccc2C1C(=O)NC1CCCCCC1 (stereo not given)	-7.5	-1.5%[38.3 µM]	4.8	-2.1	-0.2	-1.6
CCCCN(C(=O)c1ccc2c(c1)S(=O)(=O)N=C1CCCCCN12)c1c(N)n(CC(C)C)c(=O)[nH]c1=O	-0.5	0.1%	-2.2	-3.1	-0.3	5.5
O=C(CN1C2CCCC1CC(NC(=O)C1CCCCC1)C2)Nc1ccccc1C(F)(F)F (stereo not given)	4.6	1.5%	-6.4	1.0	0.0	-4.5
O=C(Nc1cccc(F)c1)C1CCCN(S(=O)(=O)c2cnc[nH]2)C1 (stereo not given)	0.6	-0.1%	-5.4	4.6	0.3	3.5
COc1ccc(NC(=O)CSc2nc(C)c3c(c2C#N)CCCC3)cc1	0.6	54.4%[38.3 µM]	-18.0	-4.2	0.6	-0.2
CC(C)C[C@@H](CN1CCC[C@H]1CN1C(=O)C(=O)NC[C@@H]1Cc1ccc(O)cc1)N1C[C@H](Cc2ccccc2)N(CC2CCCCC2)C(=O)C1=O	-12.9	-0.7%	.	.	-0.2	5.4
COc1ccc(C)cc1NC(=O)COC(=O)Cc1c[nH]c2ccccc12	1.0	0.2%	-11.2	-0.9	-0.2	-12.2
CCN(C(=O)C1CCCN1S(=O)(=O)c1cccc2nsnc12)c1ccccc1 (stereo not given)	.	-1.5%	-15.8	-5.3	-0.6	1.8

2 entries from above, in markdown.
| structure | CtBP-E1A blk | PINK1 modulator | D2 potentiator | D2 agonist | TRPML1 ag | Six1-Eya2 inh |
| --- | --- | --- | --- | --- | --- | --- |
| Cc1cc(=O)oc(C)c1C(=O)NCCCN1C(C)CCCC1C (stereo not given) | 11.4 | 3.2%[38.3 µM] | 0.4 | -1.3 | 0.9 | 7.3 |
| CCN(CC)S(=O)(=O)c1ccc(Oc2cccc(C(C)=O)c2)nc1 | 6.3 | -1.1% | -6.2 | -4.4 | 2.0 | 0.3 |

The main list resumes; the two compounds before the break are reprinted first.
SMILES	CtBP-E1A blk	PINK1 modulator	D2 potentiator	D2 agonist	TRPML1 ag	Six1-Eya2 inh
COc1ccc(C)cc1NC(=O)COC(=O)Cc1c[nH]c2ccccc12	1.0	0.2%	-11.2	-0.9	-0.2	-12.2
CCN(C(=O)C1CCCN1S(=O)(=O)c1cccc2nsnc12)c1ccccc1 (stereo not given)	.	-1.5%	-15.8	-5.3	-0.6	1.8
CCOCCCNC(=O)C(NC(=O)c1ccc2c(c1)OCO2)c1ccc(OC)cc1 (stereo not given)	5.9	-1.3%	-21.7	-4.8	-0.3	3.9
COc1ccc(C(CNC(=O)Cc2cccs2)N(C)C)cc1 (stereo not given)	-1.4	0.0%	-6.4	-0.7	0.9	-0.9
COc1ccc(CNC(=O)CN2CCN(c3ccc(F)cc3)CC2)cc1	.	0.2%	-5.1	3.7	0.3	0.9
CC(=O)c1cccc(NC(=O)Nc2ccc3c(c2)CCC3)c1	4.4	1.0%	-1.9	6.2	0.6	5.2
Cc1cccc(N2CCN(C(=S)Nc3ccc4nc(N5CCN(C)CC5)cc(C)c4c3)CC2C)c1 (stereo not given)	.	-0.3%	-16.9	1.4	0.2	-4.7
CCOC(=O)c1ccc[n+](CC(=O)c2ccccc2)c1	2.9	2.8%	-11.4	-2.0	0.0	-1.6
Oc1ccc2ccccc2c1C=NC12CN3CCN(CN(C3)C1)C2	?	-3.7%	102.5*	11.5	-0.7	-0.6
NC(Cc1ccc2nonc2c1)C(=O)O (stereo not given)	0.7	0.5%	-7.0	1.7	-0.3	5.6
O=C(N1CCN(Cc2ccc3c(c2)OCO3)CC1)C12CC3CC(CC(C3)C1)C2	7.2	.	-17.8	-1.5	-0.4	-6.3
CNC(=O)NC(=O)CSc1nnc(C(F)(F)F)n1C	-1.7	1.1%	-4.3	-0.4	-0.4	6.1
COc1ccc(OC)c2[nH]c(C(=O)O)cc12	7.4	3.8%[38.3 µM]	0.9	-0.4	0.8	-0.3
COc1ccccc1OC(=O)C1CC(=O)N(c2ccc(Cl)cc2)C1 (stereo not given)	-1.9	2.6%[38.3 µM]	10.0	0.5	3.4	2.9
CCc1ccc(N(C(=O)c2snc(C(N)=O)c2N)C(C(=O)NC2CCCC2)c2ccco2)cc1 (stereo not given)	-1.0	-1.0%	-1.5	-2.9	2.1	-3.5
COc1ccc(C)c2sc(N(CCCN(C)C)C(=O)c3ccc(S(=O)(=O)N(C)C)cc3)nc12	1.7	1.7%	-4.5	-1.2	-0.3	-2.6
OCC1(CCOc2ccccc2)CCN(Cc2nc3ccc(F)cc3[nH]2)CC1	3.5	2.5%	-13.9	-2.6	-0.6	-3.2
CCN(CC)S(=O)(=O)c1cccc(C(=O)NC(C(=O)NC2=NCCS2)C(C)C)c1 (stereo not given)	9.9	-0.9%	1.0	-1.2	0.4	5.1
CCOC(=O)C1CCCc2c1[nH]c1c(C(N)=O)cccc21 (stereo not given)	-10.8	2.5%	-1.9	-1.3	-0.1	-7.1
CCc1nc2ccccc2n1Cc1ccccc1F	-2.6	1.7%	1.3	-8.2	1.2	18.5
Nc1ccccc1Nc1ccc([N+](=O)[O-])cc1[N+](=O)[O-]	-1.2	1.6%	-6.9	0.1	1.8	-2.6
O=C1/C(=C\c2c(NCCOCCO)nc3ccccn3c2=O)SC(=S)N1Cc1ccco1	-12.2	3.8%	-4.5	-2.1	21.9	-21.7
CN(Cc1cccc(F)c1)C(=O)c1cccc(S(=O)(=O)N2CCN(Cc3ccccc3)CC2)c1	-2.4	0.2%	10.2	1.9	1.7	-10.1
COc1ccccc1C(=O)NC(CCSC)C(=O)NNC(=O)c1ccncc1 (stereo not given)	15.6	2.8%	-19.5	-8.7	0.3	-1.3
COC(=O)C1=C(C(=O)OC)[C@]2([C@@H]3CCCCN[C@@H](Cc4ccccc4)C(=O)N3Cc3ccccc3)C=C[C@H]1O2	.	3.0%	-11.6	-0.2	1.1	-19.0
Oc1ccc(-c2nc3ccccc3nc2-c2ccc(O)cc2O)c(O)c1	-12.2	-1.0%	10.3	-1.1	1.9	-5.6
Cc1cccc(N2CCN(C(=O)C(C)n3nc(C)n4c(cc5occc54)c3=O)CC2)c1C (stereo not given)	5.5	1.4%&0.9%	6.4	-3.5	-0.4&1.1	-0.5
COc1cc(/C=C2\C(=N)N3N=C(S(C)(=O)=O)SC3=NC2=O)cc(OC)c1OCCOc1ccc(C)cc1	-27.1	1.6%	-4.9	4.2	1.4	-22.3
Cc1c(C(=O)NCCC2=CCCCC2)cccc1[N+](=O)[O-]	1.1	-0.5%	-1.5	-2.2	-0.6	-6.7
COC(=O)C1=C(C(=O)OC)C2(OC1c1ccc(Br)cc1)C(=O)c1ccccc1C2=O (stereo not given)	-0.1	2.0%	-0.9	-3.2	-1.2	-1.5
Cc1ccc(S(=O)(=O)NC2(C(=O)O)CCCCC2)cc1	-0.3	-0.8%	1.4	-1.0	-0.3	10.7
Cc1ccc2nc(-c3ccc(SCC(=O)N4CCc5ccccc54)nc3)[nH]c2c1	15.8	2.9%	19.5	2.6	0.6	-7.3
COCC(=O)N1CCCc2ccccc21	35.4	-1.0%	-31.8	-1.6	1.6	31.3
Cc1sc(NC(=O)CSc2nnc(COc3ccc(Cl)cc3)n2C)c(C#N)c1C	3.3	?	-18.6	0.0	-0.6	5.5

Exported bar-delimited: part of the list above.
Molecule | CtBP-E1A blk | PINK1 modulator | D2 potentiator | D2 agonist | TRPML1 ag | Six1-Eya2 inh
COc1ccccc1C(=O)NC(CCSC)C(=O)NNC(=O)c1ccncc1 (stereo not given) | 15.6 | 2.8% | -19.5 | -8.7 | 0.3 | -1.3
COC(=O)C1=C(C(=O)OC)[C@]2([C@@H]3CCCCN[C@@H](Cc4ccccc4)C(=O)N3Cc3ccccc3)C=C[C@H]1O2 | . | 3.0% | -11.6 | -0.2 | 1.1 | -19.0

Screening results: PubChem BioAssay, National Center for Advancing Translational Sciences (NCATS)
